NPYLR7 ag = agonists of mosquito NPYLR7 receptor, primary screen, cell-based, Aedes aegypti, calcium fluorescence, mosquito biting behavior. actives 0.15% (n = 270,000). activation, % at 10 µM. Aedes aegypti neuropeptide Y-like receptor 7 (NPYLR7). HEK293T NPYLR7/Galpha15, GCaMP6s calcium fluorescence; in the data active means activation above about 40%;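 further: 0% = vehicle and 100% = reference agonist at the receptor; some compounds past the cut are filed as inactive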
NPYLR7 ag max-min = recorded beside NPYLR7 ag, whose call it bears; activation, %; measured here: Max-Min RFU normalised activation; some inactives read as strong as hits;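 span of the calcium signal over five minutes; 0% = vehicle and 100% = native peptide agonist; compound fluorescence can raise it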
* hit, by the source's call.

SMILES	NPYLR7 ag	NPYLR7 ag max-min
CCOC(=O)[C@@H]1[C@@H](O)C(=O)N(C)C12CCN(C(=O)c1ccccc1)CC2	4.6	16.5
O=c1[nH]c(CN2CCCC2)nc2c(Br)cc(Br)cc12	8.0	6.8
Nc1cc(-c2ccccc2CO)nc(N2CCCC2)n1	4.9	1.8
CC(Oc1ccc2ccccc2c1)C(=O)Nc1ccc(F)cc1Cl (stereo not given)	6.6	3.9
CC1Sc2ccc(S(C)(=O)=O)cc2N(Cc2ccc3oc4ccccc4c3c2)C1=O (stereo not given)	8.6	3.8
N#Cc1cccc(CNC(=O)N2CCCC3CCCC32)c1 (stereo not given)	3.2	2.0
CCOc1ccccc1-c1nc(COC(=O)c2nnn(-c3ccc(C)c(F)c3)c2C)c(C)o1	-3.8	-10.0
O=C(N=Nc1c(O)[nH]c2ccccc12)Nc1ccccc1	-4.3	-5.0
O=c1c2c3nc4ccccc4nc3n(Cc3ccc4c(c3)OCO4)c2ncn1Cc1ccco1	-1.2	-2.8
COCCNC(=O)CSc1nnc2n1CCN2c1ccccc1	8.6	5.9
COCCN(CC(=O)N1CCc2sccc2C1c1ccccc1C)C(=O)c1cccs1 (stereo not given)	-12.2	-10.1
Brc1cccc(C=NN2CCN(c3ccccn3)CC2)c1	24.3	4.6
CC(O)CNc1ccc(-n2nc(OC(C)C)nc2-c2ccccc2F)cc1 (stereo not given)	-0.7	0.8
Cc1cccc(-n2c(CNC(=O)c3ccc(S(=O)(=O)N(C)C)cc3)nnc2SCC(=O)N2CCc3ccccc32)c1	7.8	12.2
CC1CCCCN1C1CN(CCOCc2ccccc2)C1 (stereo not given)	0.9	-6.1
CN(C)C(=O)c1csc(-c2csc(-c3ccc(C(N)=O)cc3)n2)c1	-1.0	247.2
CN1C(=O)C(CC(=O)NCc2cccnc2N2CCCCCCC2)N(C)C1=O (stereo not given)	3.0	2.2
Cc1c[nH]c(C(=O)N2CCC(=O)N(Cc3ccc(F)cc3)C(C(C)C)C2)c1 (stereo not given)	2.8	0.8
Cc1noc(C)c1-n1c(CCCN2CCOCC2)n[nH]c1=O	1.2	-1.9
CCOc1ccccc1NC(=O)N(CC(=O)N(CCc1c[nH]c2ccccc12)Cc1ccc(C(F)(F)F)cc1)C1CC1	-4.4	-11.0
CCn1ncc(C(=O)NCCOc2cccc3ccc(C)nc23)c1C	20.7	11.8
O=C(CSc1n[nH]c(=O)n1C1CC1)NC1CCCC1	-1.4	-4.2
COC(=O)c1ccc(OC(C)C(=O)NC2CCCCC2)cc1 (stereo not given)	-12.2	-14.7
COc1cc2c(cc1-c1ccco1)OCC(C)(C)CC2CO (stereo not given)	1.3	6.0
O=C(N[C@@H]1c2ccccc2C2(CCNCC2)[C@H]1O)c1cn2ccsc2n1	5.1	1.3

Rewritten with values under each structure: 3 of the compounds above
Below each SMILES – NPYLR7 ag | NPYLR7 ag max-min
N#Cc1cccc(CNC(=O)N2CCCC3CCCC32)c1 (stereo not given)
    3.2 | 2.0
CCOc1ccccc1-c1nc(COC(=O)c2nnn(-c3ccc(C)c(F)c3)c2C)c(C)o1
    -3.8 | -10.0
O=C(N=Nc1c(O)[nH]c2ccccc12)Nc1ccccc1
    -4.3 | -5.0

Continuation.
SMILES	NPYLR7 ag	NPYLR7 ag max-min
O=C(Cn1ccccc1=O)NC1=NCCS1	8.8	3.0
CCOCCOC1CCCN(C(=O)c2ccc(C(F)(F)F)cc2)C1 (stereo not given)	-8.6	-3.4
CCCCn1c(N)c(N(C)C(=O)C2(c3ccc(Cl)cc3)CCCC2)c(=O)[nH]c1=O	10.0	5.3
O=CNc1cc(-c2cccc(F)c2)cn2c(-c3ccc(F)cc3)cnc12	-5.7	-11.3
CCn1c(C2CCCN(Cc3nc(C(C)C)cs3)C2)nn(C)c1=O (stereo not given)	-2.5	-5.9
Cc1ccc(NC(=O)c2c(NC(=O)c3ccccc3)sc3c2CCC(C)C3)cc1 (stereo not given)	0.4	3.3
O=C(/C=C/c1ccc(Cl)cc1Cl)Nc1nccs1	10.7	5.2
Cc1[nH]cnc1C(=O)N1CCC(c2n[nH]c(=O)n2Cc2ccccc2)CC1	8.4	5.5
CSCC(=O)N1CCC(CCC(=O)Nc2ccc(F)c(Cl)c2)CC1	0.3	-1.7
CCN(CCn1cccn1)Cc1cccc2c1OCO2	-5.3	-9.5
CCOc1cccc2sc(N(CCCN(C)C)C(=O)c3cccs3)nc12	7.5	5.8
O=S(=O)(Nc1ccc2c(c1)-c1ccccc1C2)c1ccc(F)cc1	4.9	2.3
CN(C)C(=O)c1cncc(N2CCC3(CCNCC3)CC2)n1	-0.8	-1.9
Cc1nn(CC(=O)N2CCCCC2)c(C)c1[N+](=O)[O-]	-1.0	0.4
O=C1C[C@H]2CC[C@@H](CN1)N2C(=O)c1cnc2ccccn2c1=O	0.9	-0.6
c1nc(NC2CCCCCC2)c2cc[nH]c2n1	3.1	0.6
CCOc1ccc(C2C(C(=O)OCCc3ccccc3)=C(C)NC3=C2C(=O)CC(c2ccccc2)C3)cc1OC (stereo not given)	15.1	15.5
CCOc1cc(C2NC(=O)c3nn(CC)cc3N2)c(Br)cc1O (stereo not given)	-0.7	11.7
COc1ccc(O)c(-c2cc(C(F)(F)C(F)F)nc(-c3ccccc3)n2)c1	7.3	4.9
CCC(C)(C)c1ccc(Oc2ccc(N)cc2)cc1	4.1	6.7
COCC(=O)Nc1ccc(N2CCN(C(=O)c3ccc(OC)c(F)c3)CC2)nc1	-4.7	-1.9
Cn1c(SCc2nnc(-c3ccco3)o2)nc2ccccc21	6.7	5.3
Cc1onc(-c2ccccc2Cl)c1C(=O)Nc1ccccc1C(N)=O	1.7	0.0
CNC(=O)C(C)CN(C)C(=O)Nc1cc(-c2ccccc2)ns1 (stereo not given)	6.4	3.9
CC(=O)Nc1ccc(S(=O)(=O)NC(C)(C)CC(C)(C)C)cc1	2.5	9.1

Exported as a markdown table: 3 of the compounds above.
| canonical_smiles | NPYLR7 ag | NPYLR7 ag max-min |
| --- | --- | --- |
| CCCCn1c(N)c(N(C)C(=O)C2(c3ccc(Cl)cc3)CCCC2)c(=O)[nH]c1=O | 10.0 | 5.3 |
| Cc1nn(CC(=O)N2CCCCC2)c(C)c1[N+](=O)[O-] | -1.0 | 0.4 |
| Cc1[nH]cnc1C(=O)N1CCC(c2n[nH]c(=O)n2Cc2ccccc2)CC1 | 8.4 | 5.5 |

Further compounds follow:
SMILES	NPYLR7 ag	NPYLR7 ag max-min
O=C(Cc1ccc2c(c1)OCO2)N1CCCC2(C1)C(=O)Nc1ccccc12 (stereo not given)	2.0	-0.2
Cc1c(C)n(Cc2ccco2)c2ncnc(Nc3ccccc3O)c12	17.9	7.8
O=S1(=O)NC(=NCCCc2ccccc2)c2ccccc21	4.2	7.2
O=C(Nn1cnc2ccccc21)c1ccccc1SC1CCS(=O)(=O)C1 (stereo not given)	6.7	5.1
O=C(NCCNc1cc(-n2cccn2)ncn1)c1ccco1	-8.4	-14.6
CC(=O)c1ccc(CN(C)Cc2cccc3cnccc23)cc1	3.6	58.1
CN1CCN(N=C2C(=O)Nc3c(Cl)cc(Cl)cc32)CC1	-16.8	-21.7
CS(=O)(=O)CCCS(=O)(=O)NCc1ccn2ccnc2c1	0.5	0.5
Cc1cnc(C(=O)NCCc2ccccc2C)cn1	0.7	0.5
COc1ccc(CSc2nnc(-c3ccccc3C)n2-c2ccccc2)cc1	-0.9	0.2
Cc1nn2c(nnc3c(=O)n(-c4ccc(F)cc4)ccc32)c1-c1ccc(Cl)cc1	1.9	5.2
COCCN(CC(=O)N(Cc1ccc(F)cc1)Cc1sccc1C)C(=O)c1ccc(C(F)(F)F)cc1	10.4	12.8
O=S(=O)(CCN1CCc2cncnc2C1)C(F)(F)F	13.4	11.8
Cc1ccc(C(C)CCN2CCC(C(=O)Nc3cccc(-c4ccn[nH]4)c3)CC2)o1 (stereo not given)	3.8	-2.3
CCCN(Cc1c(-c2ccccc2)noc1N1CCSCC1)CC(O)COCc1ccccc1 (stereo not given)	6.4	7.6
Brc1ccc2nc(-c3cccs3)c(NC3CCCCC3)n2c1	-2.7	13.6
CN1CCN(C(CNC(=O)c2cnn(C(C)(C)C)c2)c2cccs2)CC1 (stereo not given)	-5.8	-5.8
CCCCN(CC)C(=O)Cn1nc(CC)n2c(cc3sccc32)c1=O	4.1	3.0
COc1ccc(N2CC(C(=O)Oc3coc(CSc4nc(C)cc(C)n4)cc3=O)CC2=O)cc1 (stereo not given)	-8.6	-0.2
CC(C)c1ccc(NC(=O)CC2CC3(CCNCC3)c3ccccc32)cc1 (stereo not given)	0.3	21.9
O=C1OCCN1c1cccc(CNS(=O)(=O)c2cc(Cl)ccc2Cl)c1	13.5	17.0
COc1ccc(/C=C/c2cccc[n+]2C)c(OC)c1OC	7.8	8.1
CCCN(CC(=O)NCC(=O)Nc1ccccc1)C(=O)c1ccc(-c2ccccc2)cc1	12.9	13.0
CNc1nnc(SCC(O)C23CC4CC(CC(C4)C2)C3)s1 (stereo not given)	15.3	14.0
CCCc1nc(C(=O)NCc2nnc(-c3ccccc3)o2)cs1	3.5	-0.1

Individual results from the entries so far:
NPYLR7 ag result of `Cc1c(C)n(Cc2ccco2)c2ncnc(Nc3ccccc3O)c12` = 17.9
NPYLR7 ag result of `CCCCN(CC)C(=O)Cn1nc(CC)n2c(cc3sccc32)c1=O` = 4.1
NPYLR7 ag max-min result of `Cc1cnc(C(=O)NCCc2ccccc2C)cn1` = 0.5
NPYLR7 ag max-min result of `O=C1OCCN1c1cccc(CNS(=O)(=O)c2cc(Cl)ccc2Cl)c1` = 17.0
NPYLR7 ag result of `CC(=O)c1ccc(CN(C)Cc2cccc3cnccc23)cc1` = 3.6
NPYLR7 ag result of `Cc1nn2c(nnc3c(=O)n(-c4ccc(F)cc4)ccc32)c1-c1ccc(Cl)cc1` = 1.9

(further entries)
SMILES	NPYLR7 ag	NPYLR7 ag max-min
CCN1C(=O)/C(=c2\sc3n(c2=O)C(c2cccs2)C(C(=O)OC)=C(C)N=3)c2ccccc21 (stereo not given)	2.6	0.2
O=C(N1CCc2nnc(CCc3ccccc3)n2CC1)C1(C(F)(F)F)CC1	-3.1	-4.1
Cc1cc2nc(N(Cc3cccnc3)C(=O)c3cc(C)n(C)n3)sc2cc1C	6.5	1.9
CCc1nc2ccc(C(=O)Nc3cccc(OC)c3)cn2c1N(C)CCCc1ccccc1	20.3	15.7
Cc1cc(-c2c(-c3ccccc3)ncn2Cc2c(C)noc2C)n[nH]1	1.0	-1.5
CC1(C)C2CC[C@@]1(CS(=O)(=O)N1CCC[C@@H]1C(=O)NC1CCC(NC(=O)c3ccccc3)CC1)C(=O)C2 (stereo not given in full)	5.1	14.9
Cc1ccc(CNS(=O)(=O)CCN2C(=O)NC(C)(C)C2=O)cc1	6.0	1.9
CC(=O)NCc1ccc(S(=O)(=O)Nc2cc3c(cc2Cl)OCCCO3)s1	4.5	3.5
COc1ccc(C(=O)C=Cc2cccc(O)c2)cc1F	-1.7	-5.1
O=[N+]([O-])c1cnc(Nc2ccccc2Cl)c([N+](=O)[O-])c1	-1.9	-1.8
COc1ccc(-n2nc(C)c(-c3ccccc3)c2NC(=O)CN(C(=O)c2ccc(Cl)c(Cl)c2)C(C)C)cc1	17.5	20.4
O=C(NCCn1ncc2c(=O)n(Cc3ccc([N+](=O)[O-])cc3)cnc21)c1cccc(C(F)(F)F)c1	-2.0	-6.8
CCN(CC)C(=O)Oc1ccc2c(ccn2Cc2ccc(F)cc2C(F)(F)F)c1-c1ccc(OC)c(OC)c1	14.9	-4.0
COc1ccc(C2CC(=O)C3=C(C2)N=C(C)C(C#N)C3c2ccc(Br)cc2)cc1 (stereo not given)	0.6	-1.3
CCc1ccc(NC(=O)Cn2c(-c3nnc(C(C)C)o3)cc3ccccc32)cc1	-6.7	-7.3
COc1ccccc1NC1CC(=O)N(c2cccc(Cl)c2C)C1=O (stereo not given)	-2.4	-4.0
Cc1ccccc1NC(=O)CC(=O)N1CCCC(c2nc3ccccc3s2)C1 (stereo not given)	-2.9	-2.7
CC1(C)Cc2cccc(OCC(=O)NCc3nnnn3-c3ccccc3)c2O1	8.7	4.7
CCc1ccc2nc(CC(=O)c3ccc(C)s3)[nH]c(=O)c2c1	2.7	1.5
O=C(CON=C1c2ccccc2-c2ccccc21)N1CCc2ccccc21	11.2	10.5

Whole records from above:
COc1ccc(C(=O)C=Cc2cccc(O)c2)cc1F in the list: NPYLR7 ag: -1.7; NPYLR7 ag max-min: -5.1
Cc1ccccc1NC(=O)CC(=O)N1CCCC(c2nc3ccccc3s2)C1 (stereo not given) in the list: NPYLR7 ag: -2.9; NPYLR7 ag max-min: -2.7
CC1(C)Cc2cccc(OCC(=O)NCc3nnnn3-c3ccccc3)c2O1 in the list: NPYLR7 ag: 8.7; NPYLR7 ag max-min: 4.7

Screens: PubChem, Fisher Drug Discovery Resource Center

Some of the compounds tested; count on the stated rates, not on these rows.
